Menin MLL FP FL: menin-MLL binding inhibition, fluorescein peptide; Fluorescence polarization, fluorescein-MLL peptide displacement from menin; FP activity change, % at 61.4 µM; 290,000 tested, under 10 active; AID 1766; inconclusive = falling polarisation curve, or a change in total fluorescence; inactive = total fluorescence flat and polarisation flat or rising; no compound was filed as active; the % refers to the polarisation; negative = inhibition;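 also: % of control where 0% means no effect; inhibitors lower the polarisation; unlabelled MLL peptide was the positive control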
gsp ag: gsp mutant agonism | gsp mutant cells, cAMP HTRF, 30 min; control for the full effect not named in the record | Potency, µM (highest dose often 76.9 µM), for inactives: top-dose activation (cAMP increase), hits mostly activators | 0.13% of 340,000 active; active = well fitted activation curve with a large enough effect; inconclusive = small, poorly fitted or top-dose-only effect, or another doubt; inactive = no such curve, though single readings can be large or run the other way; cell line not stated here;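 also: phosphodiesterase inhibitor Ro 20-1724 added with compounds to block cAMP breakdown; potency is read from the fitted curve at half-maximal effect; nearly all actives have a fitted effect of over 60% in size; about a fifth of the inactives were tested at one dose only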
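Cells in DMEM/10% FBS with G418 were pretreated with compounds in DMSO plus […] (300 uM stock) for 30 min at 37C. cAMP was measured by HTRF (cAMP-d2 plus anti-cAMP antibody-K) after 30 min at room temperature.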
gsp antagonist: antagonizes gsp, the McCune-Albright syndrome mutation | gsp-mutant cells, cAMP HTRF, 30 min; control for the full effect not named in the record | AID 624288 | 0.4% of 340,000 active | Potency, µM (series often up to 76.9 µM), inactives show at the highest dose activity change, negative = inhibition, usual class: inhibitors; active = falling curve of any shape with a large fitted effect; inconclusive = falling curve, mostly with a smaller effect; inactive = flat or rising curve; cell line not stated here;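 also: intracellular cAMP measured with PDE inhibitor Ro 20-1724 present during compound exposure; potency is read from the fitted curve at half-maximal effect; % is scaled to controls: 0 for no effect and ±100 for the full control effect; nearly all actives have a fitted effect of over 65% in size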
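Cells in G418 medium, seeded 16-24 h, 37C; buffer exchange to DPBS + 1 mM CaCl2, 0.5 mM MgCl2, 0.05% BSA; cpds in DMSO + […] (300 uM stock), 30 min 37C; HTRF cAMP detection.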
CtBP-E1A inh: blocks the CtBP interaction with E1A; AlphaScreen GST-E1A/His-CtBP binding, 1536-well; hits give low values; control for the full effect not named in the record; activity change, % (test concentration not listed); 0.49% of 340,000 active; AID 651724; in the data active means activity change below about -65%; inconclusive means about -30% to -65%; inactive means above about -30%; also: % is scaled to controls: 0 for no effect and ±100 for the full control effect; compound concentration not given in the record
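Steps: dispense buffer (Tris pH 8.0, NaCl 300 mM, TCEP 1 mM, BSA, Tween 20); add 5X protein mix (GST-E1A, His-CtBP, 125 nM each); pin 23 nL compound; 2 h at 37 °C, dark; add 5X beads (50 ug/mL); 1 h; read.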
ClpP mod: qHTS Assay for Activators of ClpP | AID 651965, 2013 | Potency, µM (doses to about 57.5 µM), inactives show at the highest dose activity change, negative = active | purified B. subtilis ClpP, FRET peptide cleavage, 20 min | 1.9% of 340,000 active; active = well fitted falling curve with a large enough effect; inconclusive = small, poorly fitted or top-dose-only effect; inactive = no such curve, though single readings can be large or run the other way; also: potency is read from the fitted curve at half-maximal effect; the source files actives as falling curves though it sought activators and does not explain the sign; nearly all actives have a fitted effect of over 65% in size; many hits overshoot -100%
Target sequence (P80244 whole entry, looked up): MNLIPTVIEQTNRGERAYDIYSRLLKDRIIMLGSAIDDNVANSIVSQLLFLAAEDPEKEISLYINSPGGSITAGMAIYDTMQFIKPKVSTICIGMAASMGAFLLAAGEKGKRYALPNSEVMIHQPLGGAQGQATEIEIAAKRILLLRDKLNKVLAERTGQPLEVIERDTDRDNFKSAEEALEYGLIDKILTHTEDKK
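Buffer: 100 mM Tris/HCl pH8, 100 mM KCl, 0.05% low protease BSA, 2.5% glycerol, 0.01% Tween-20. ClpP 10 microg/mL final; 20 min RT; delta FRET normalized to ADEP and DMSO controls.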
TRPV1 PAM: enhances activation of the human vanilloid receptor TRPV1; Q8NER1; TRPV1-expressing cells, Fluo-8 calcium influx, capsaicin EC20 potentiation; host cell line not named in the record; control for the full effect not named in the record; potentiation, % at 8.33 µM; 0.02% of 320,000 active; active means potentiation above 80%; inconclusive means 30% to 80%; inactive means below 30%; also: 0% is about no effect
Target sequence (Q8NER1 whole entry, looked up): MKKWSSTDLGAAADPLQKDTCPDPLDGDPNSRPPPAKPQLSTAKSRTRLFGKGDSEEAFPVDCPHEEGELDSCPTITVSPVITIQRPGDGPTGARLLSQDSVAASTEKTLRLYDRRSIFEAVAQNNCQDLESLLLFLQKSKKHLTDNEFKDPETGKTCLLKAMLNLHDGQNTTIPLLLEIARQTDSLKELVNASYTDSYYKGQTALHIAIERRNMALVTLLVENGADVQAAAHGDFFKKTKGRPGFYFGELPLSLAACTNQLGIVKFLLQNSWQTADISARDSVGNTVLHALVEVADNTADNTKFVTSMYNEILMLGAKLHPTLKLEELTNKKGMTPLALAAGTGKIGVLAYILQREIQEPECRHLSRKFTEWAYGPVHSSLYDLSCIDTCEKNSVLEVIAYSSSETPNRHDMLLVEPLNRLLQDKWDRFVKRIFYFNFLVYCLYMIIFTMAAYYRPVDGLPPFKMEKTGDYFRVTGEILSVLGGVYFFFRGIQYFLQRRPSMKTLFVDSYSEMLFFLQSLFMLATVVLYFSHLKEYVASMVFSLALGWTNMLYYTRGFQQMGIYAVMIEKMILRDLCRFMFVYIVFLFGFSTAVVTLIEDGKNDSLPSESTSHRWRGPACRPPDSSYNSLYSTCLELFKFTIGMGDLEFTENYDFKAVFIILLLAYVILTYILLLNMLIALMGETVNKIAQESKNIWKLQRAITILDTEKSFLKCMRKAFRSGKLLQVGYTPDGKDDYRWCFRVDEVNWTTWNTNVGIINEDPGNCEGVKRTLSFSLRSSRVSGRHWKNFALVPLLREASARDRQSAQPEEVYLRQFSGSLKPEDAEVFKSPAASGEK
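Cells expressing TRPV1 were dye-loaded with Fluo-8 and read kinetically: 10 s baseline, 3 min after compound (agonist portion), then 2 min after EC20 capsaicin (allosteric enhancer portion). Calcium-bound dye fluorescence at 480/520 nm.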
Sfp PPTase inh: inhibitors of Bacillus subtilis Sfp phosphopantetheinyl transferase. Q9F4F7. Biochemical Sfp PPTase activity, qHTS. Potency, µM, inactives show max response, negative = inhibition, most hits filed as inhibitors. 3.5% of 310,000 active. AID 1490; active = well fitted inhibition curve with a large enough effect; inconclusive = small, poorly fitted or top-dose-only effect, or another doubt; inactive = no such curve, though single readings can be large or run the other way;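 also: the enzyme is Sfp with the accession as filed and its product quenches rhodamine fluorescence; potency is read from the fitted curve at half-maximal effect; 0% = enzyme reaction without inhibitor and -100% = no enzyme wells; top concentration of the series not given in the record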
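Buffer: 50 mM Hepes-Na pH 7.6, 10 mM MgCl2, 0.01% Nonidet P-40, 0.01% BSA. Enzyme 15 nM, pre-exposed to compound 15 min; substrates then added and fluorescence change tracked over 30 min.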
* hit, by the source's call; ? = inconclusive; · = no result given; & = joins results of further samples; [ ] = another dose, or the depositor's remark.

SMILES	Menin MLL FP FL	gsp ag	gsp antagonist	CtBP-E1A inh	ClpP mod	TRPV1 PAM	Sfp PPTase inh
C[C@H](CO)N1C[C@H](C)[C@H](CN(C)C(=O)c2ccccn2)Oc2cc(C#Cc3ccc(F)cc3)ccc2S1(=O)=O	·	35%	·	-8	-6.4%	·	·
COc1ccc(C2C(C#N)=C(N)N(N(C)C)C3=C2C(=O)CC(C)(C)C3)cc1 (stereo not given)	3.5	-53%[inhibitor]	6%	-11	-5.3%	7	7%
Cc1c(C(=O)N2CCN(c3ncccn3)CC2)oc2ccc(F)cc12	·	30%	-12%	6	·	·	·
Cc1ccc(/C=N/NC(=O)C[n+]2ccccc2)o1	0.3	15%[15.4 µM]	-9%	0	·	11	6%
CCc1cc2cc(C)ccc2nc1SCC(=O)NC1CCCC1	6.0	6%[15.4 µM]	?	-11	·	-12	-1%
COc1ccc(Cl)cc1S(=O)(=O)N1CCC(C(=O)NCc2ccccn2)CC1	·	3%[15.4 µM]	1%	-5	·	-12	·
O=C(Nc1cccc2ccccc12)c1ccc(Cn2cc(Cl)cn2)cc1	0.3	-1%	-7%	0	-7.2%	-3	9%
Cc1ccc(S(=O)(=O)N2CCCC(C(=O)NCCc3ccc4c(c3)OCO4)C2)cc1 (stereo not given)	0.2	8%	-16%	-3	-2.4%	-2	-2%
CN1C(=O)/C(=C\c2ccc(-c3ccccc3)o2)SC1=S	2.8	-30%	0%	10	·	18	?
CCOC(=O)c1sc(NC(=O)CNCc2cccnc2)c(C(=O)OCC)c1C	0.2	7%[15.4 µM]	-35%	-2	-3.1%	5	-5%
Cc1nc2c3ccccc3nc(SCC(=O)c3ccc(Cl)cc3)n2n1	7.4	-46%[inhibitor]	-3%	1	-2.9%	9	?
O=C(Nc1ccc(C(=O)c2ccc(C(=O)O)c(C(=O)O)c2)cc1)c1ccccc1	-5.7	-34%[inhibitor]	-6%	·	-0.8%	9	-1%
COc1ccc(C2CC(=O)n3nc(C45CC6CC(CC(C6)C4)C5)nc3S2)cc1OC (stereo not given)	2.2	28%	8%	6	-0.9%	7	1%
CCC(=O)c1ccc(OCC(O)Cn2c(C)nc3ccccc32)cc1 (stereo not given)	2.4	28µM*	-39%	-3	1.1%	-5	12%
O=C(O)/C=C\C(=O)NC1CCCCC1	4.8	19%	10%	11	1.4%	0	1%
O=C(O)CC(NC(=O)C1c2ccccc2Oc2ccccc21)c1ccc(OC2CCCC2)cc1 (stereo not given)	-0.8	-2%[15.4 µM]	-6%	-13	·	-4	1%
O=C(Nc1cccc(Cl)c1Cl)C1CCCO1 (stereo not given)	0.8	?	6%	4	·	7	12%
CCOCCCNC(=O)Cn1nc(-c2ccc(OC)c(OC)c2)ccc1=O	·	-99%[inhibitor]	·	4	1.5%	·	·
CCC(C)NC(=O)CCc1nnc2ccc(N3CCC(C)CC3)nn12 (stereo not given)	0.9	-10%	-1%	-22	-3.2%	-4	-2%
CC1CCN(CC2C(=O)O[C@@H]3C[C@@]4(C)CCC[C@H](C)C4=C[C@H]23)CC(C)(C)C1 (stereo not given in full)	-2.2	-54%[inhibitor]	6%	-13	·	2	-7%

Pulled by structure from the entries so far, 2 records:
SMILES	Menin MLL FP FL	gsp ag	gsp antagonist	CtBP-E1A inh	ClpP mod	TRPV1 PAM	Sfp PPTase inh
O=C(O)/C=C\C(=O)NC1CCCCC1	4.8	19%	10%	11	1.4%	0	1%
O=C(Nc1cccc2ccccc12)c1ccc(Cn2cc(Cl)cn2)cc1	0.3	-1%	-7%	0	-7.2%	-3	9%

More compounds
SMILES	Menin MLL FP FL	gsp ag	gsp antagonist	CtBP-E1A inh	ClpP mod	TRPV1 PAM	Sfp PPTase inh
Cc1ccc(N2C(=O)CC(Nc3ccc(Cl)c(S(=O)(=O)N(C)C)c3)C2=O)c(C)c1 (stereo not given)	-3.2	-28%	-20%	9	-0.7%	-5	-7%
COc1cc(/C=C(/C#N)c2nc3ccccc3[nH]2)ccc1OCC(=O)Nc1ccccc1C(C)C	?	?	5%	1	18%	1	-2%
CCc1ccc(NS(=O)(=O)c2ccc3[nH]cc(C(=O)NCC4CCCO4)c(=O)c3c2)cc1 (stereo not given)	2.8	5%	2%	-3	-11%	7	6%
COC(=O)C1=C(C)NC(=O)/C1=C\c1cc(C)n(-c2ccccc2)c1C	?	-26%	-19%	-1	·	-19	?
Cc1ccccc1Oc1ncnc2oc(-c3ccccc3)cc12	4.4	5%	-3%	2	32µM*	-23	-18%
C/C=C\C=C/C(=O)Nc1cccc(C2=NOC3(C2)C[C@@H](C(N)=O)N(C(=O)[C@H]2CCC(=O)N2)C3)c1 (stereo not given in full)	-8.1	·	12%	5	-1.9%	-8	35µM*
O=P(Cc1nnco1)(c1ccccc1)c1ccccc1	-1.3	18%	6%	-1	29%	18	18%
CCOCCCNC(=O)c1c(C)c(C(=O)OCC)n(C)c1C	2.6	27%	5%	1	-1.0%	-1	16%
C[C@@H]1CN([C@H](C)CO)C(=O)Cc2cc(NS(=O)(=O)c3ccc(Cl)cc3)ccc2O[C@H]1CN(C)Cc1ccc(C(F)(F)F)cc1	·	?	-19%	·	0.6%	·	·
O=C1/C(=C/c2cccnc2)SC(=S)N1CCc1ccccc1	-0.8	-4%	-8%	-8	0.3%	-4	-1%
COCCn1c(N)c(N(Cc2ccccc2)C(=O)c2ccc(C#N)cc2)c(=O)[nH]c1=O	-2.5	2%	-3%	0	-10%	-7	-9%
S=c1[nH]nc(-c2cc(-c3ccccn3)nc3ccccc23)o1	8.9	-23%	-18%	-9	6.2%	20	-8%
COc1ccc(OC)c(NC(=O)CSc2nc3[nH]c(=O)[nH]c(=O)c3s2)c1	·	-4%[15.4 µM]	4%	-2	·	·	·
COc1ccc(C(C(=O)NCCC(C)C)N(CCO)C(=O)c2snc(C(N)=O)c2N)cc1OC (stereo not given)	-7.0	13%	15%	11	-16%	7	13%
COc1ccccc1CNC(=O)[C@H](C)NC(=O)C1CCN(C(=O)[C@@H]2CCCN2C(=O)OC(C)(C)C)CC1	1.5	·	5%	-20	-2.7%	3	5%
Cc1ccc(N2C(=O)CS/C2=N\C(=S)Nc2ccccc2)cc1	7.4	8%[15.4 µM]	?	3	-1.2%	12	14%
O=C1NC(=Nc2ccccc2Cl)S/C1=C\c1cccc([N+](=O)[O-])c1	-0.6	10%	-19%	2	·	13	-8%
Cc1cc(C)c(C#N)c(SCC(=O)Nc2ccc(S(=O)(=O)Nc3ncccn3)cc2)n1	·	-7%[15.4 µM]	-11%	-2	1.2%	-16	10%
CCN(CC)S(=O)(=O)c1cccc(NC(=S)NC(=O)/C=C/c2ccc(S(=O)(=O)N3CCOCC3)cc2)c1	3.0	-1%[15.4 µM]	-15%	-21	-1.6%	-7	15%
CC(C)(C)C(=O)Nc1cc(S(=O)(=O)Nc2ccc(Cl)cc2)ccc1Cl	3.7	-31%[inhibitor]	-16%	-1	-2.2%	3	5%
CCOC(=O)N1CCC(NC(=O)C(Cc2ccccc2)NC(=O)c2ccco2)CC1 (stereo not given)	0.0	-2%	17%	10	0.6%	?	13%
CCc1ccc(OC)c(S(=O)(=O)N2CCN(C(=O)c3ccco3)CC2)c1	-4.1	-6%	-1%	12	0.5%	2	7%
CC(=O)Nc1ccc(NC(=O)/C=C/c2ccccc2)cc1	4.8	-19%[15.4 µM]	-4%	5	·	-17	4%
CN(CC(=O)Nc1ccc(Cl)cc1)Cc1cc(=O)n2ccsc2n1	1.9	?	4%	-22	-14%	-7	-1%
O/N=C/c1ccc(OCc2ccccc2)c(Cl)c1	9.5	?	-4%	-4	5.3%	17	-12%
CCOc1ccccc1-c1noc(CCC(=O)Nc2cccnc2)n1	2.2	10%	-7%	-1	·	9	16%
O=C1N[C@@H](c2ccccc2)COC(=O)[C@H](Cc2ccc(F)cc2)CC/C=C/C[C@@H]1CC(=O)N(CCO)Cc1ccccc1	·	·	-15%	-10	-4.4%	·	·
Cc1ccc(NC(=O)c2cc(C)nc3ccccc23)c(C)c1	-2.7	-21%	-1%	·	-0.8%	4	14%
CC(C)(C)c1ccc(-c2nc3c(C#N)c(-c4ccc5c(c4)OCO5)ccn3n2)cc1	0.2	?	7%	3	?	23	-3%
CC(C)N1CCC(=NNC(=O)c2ccccc2[N+](=O)[O-])CC1	4.1	-9%[15.4 µM]	12%	12	0.9%	-7	12%
COc1ccc(Br)cc1CN(C)C(=O)c1ccncc1	·	-3%	-1%	2	1.1%	0	0%
CCc1ccc(CC2(O)CC(C)N(C)CC2C)cc1 (stereo not given)	1.3	-25%	14%	4	0.6%	9	30%
Cc1cc(Cl)cc2c(N=Nc3ccccc3C(=O)O)c(O)[nH]c12	21	23%	-9%	-8	7.2%	5	-7%
CCCNCc1cc(Cl)c(OCC)c(Cl)c1	0.3	29%	5%	41	1.9%	3	16%
CCCCN(CC)C(=O)CSc1nc2n[nH]c(C)c2c(=N)n1-c1cccc(C)c1	0.3	-57%[inhibitor]	-15%	·	-3.1%&-2.9%	6	-5%
CCn1c(C)nc2cc(C(=O)N/N=C/c3cccc(O)c3O)ccc21	-0.7	-10%	-13%	-94*	·	14	6%
CC(C)COc1cccc(C(=O)NC2(C)CCS(=O)(=O)C2)c1 (stereo not given)	·	-22%	4%	3	0.5%	-8	17%
O=C(O)CCn1c(-c2ccccc2)cc2c1CCCC2=O	-0.1	6%	6%	3	-1.3%	·	-16%
Cc1nc(=S)c2c([nH]1)-c1ccccc1CC21CCCCC1	0.3	16%[15.4 µM]	-5%	-2	·	·	24%
Cc1ccc(-c2nc(CS(=O)CC(=O)NCCN3CCCCC3C)c(C)o2)cc1 (stereo not given)	·	0%	13%	·	-13%	-13	19%
CC1Cc2ccccc2N1CC(=O)Nc1ccc2c(c1)OCCCO2 (stereo not given)	·	?	2%	-23	-0.5%	-11	·
O=S(=O)(NCC(c1cccnc1)N1CCOCC1)c1cccs1 (stereo not given)	-2.2	-17%	-7%	7	0.2%	28	7%
O=C(c1cccc(NC2=NC3CS(=O)(=O)CC3S2)c1)N1CCN(c2ccc(F)cc2)CC1 (stereo not given)	-1.8	-33%[inhibitor]	8%	3	-0.1%	3	-4%
CCC(=O)Nc1cc(C(C)(C)C)ccc1C(C)=O	3.3	-6%	0%	5	-1.4%	-11	6%

Source: PubChem (National Center for Advancing Translational Sciences (NCATS))
